CapD inh: CapD enzyme inhibition; actives 0.23% (n = 140,000); z-score (test concentration not listed); purified CapD enzyme, fluorescence intensity read-out; hits give low values; some hits fall short of the stated cut;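 active means z-score under -4 in either of two replicates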;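 further: stock transfer was 100 nL into about 40 µL; score is relative to mean and spread of the plate; one replicate is shown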
AID504770: E. coli YBA685 growth inhibition, screen for V. cholerae RctB inhibitors | AID 504770 | E. coli YBA685 rctB-dependent plasmid, OD600 growth, 3 h; hits give low values | z-score (concentration not given with the values) | actives 0.27% (n = 130,000);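 active means z-score under -2 on both plates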;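 further: wells of about 30 µL received 100 nL stock; score is relative to mean and SD of the test wells; the first replicate is given; strong numbers were not always called active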
Active calls of the source: *; · = not tested or not shown; & = joins results of further samples.

SMILES	CapD inh	AID504770
CC(C)n1cc(-c2nc3ccccc3o2)cn1	-0.095	·
O=C(NCc1ccco1)c1ccc2c(c1)CCO2	-0.56	-0.05
N#CCc1n[nH]c(=O)c2ccccc12	·	-0.5
Cn1c(=O)c2c(nc(NCCOCCO)n2Cc2ccccc2Br)n(C)c1=O	0.94	·
Cc1cc(C(=O)N2CCCC2)c2c(C)nn(-c3ccccc3)c2n1	1.7	0.35
COc1ccc(/C=C2\SC(=Nc3cc(C)cc(C)c3)NC2=O)cc1OC	-0.28	·
CC(C)(C)OC(=O)N(CCOC(=O)N1CCN(c2nccnc2C#N)CC1)Cc1cc2ccccc2c2ccccc12	-0.33	·
CCCC1C(C#N)=C(N)SC(N)=C1C#N	2.9	-1.4
FC(F)(F)C1CCCN(c2nsc3ccccc23)C1 (stereo not drawn)	·	-1.9
COc1ccc(N2CCN(c3ncnc4sc(C(=O)NCCCN5CCOCC5)c(C)c34)CC2)cc1	-0.71	·
COc1cc(C(F)(F)F)nc2c(I)c(C(C)(C)C)nn12	2.7	-0.4
CNC(C)c1ccc2c(c1)OCCO2 (stereo not drawn)	0.18	-0.55
CCOC(=O)c1sc2ncnc(Nc3ccc(C)cc3Br)c2c1C	0.83	·
COc1ccc(NS(=O)(=O)c2ccc(N3C(=O)CC4(CCCC4)C3=O)c(Cl)c2)c(OC)c1	-0.29	-1
COc1cccc(C(=O)N2c3ccccc3C(N(C(=O)C(F)(F)F)c3ccccc3)CC2C)c1 (stereo not drawn)	0.28	·
CCOc1ccc(S(=O)(=O)/N=C(\N)c2ccccc2)cc1	23	0.3
CN(c1ccc(OCC(=O)NCC(F)(F)F)cc1)S(=O)(=O)c1ccccc1	·	1.9
COc1ccccc1N1CCN(c2ncnc3sc(C(=O)N4CCOCC4)c(C)c23)CC1	-0.06	·
O=C(NCc1ccc2c(c1)OCO2)C1CCCCC1	0.13	-0.2
Cc1ccc(Cl)cc1NC(=O)COC(=O)c1n[nH]c2ccccc12	0.76	0
CO/N=C\C(/C=C/c1ccccc1)S(=O)(=O)c1ccc(Cl)cc1 (stereo not drawn)	0.18	·
O=S(=O)(NCc1ccccc1)c1ccc(Br)cc1	-0.015	·
COc1ccc(N2C(=O)C3C4c5ccccc5C(c5ccccc54)C3(C)C2=O)cc1 (stereo not drawn)	1	·
COc1cccc(C2CC(=O)Nc3c2ccc2ccccc32)c1OC (stereo not drawn)	-0.43	·
Cn1c(-c2ccccc2)n[nH]c1=S	-0.57	-0.45
COc1ccc(/C=C(\C#N)c2ccc(OC)cc2)cc1	1.4	2.2
Cc1cccc(NC(=O)C23CC4CC(C2)CC(n2nnc(C)n2)(C4)C3)c1	-0.29	0.15
O=C1C2C3C=CC(C3)C2C(=O)N1CN1CCCCC1 (stereo not drawn)	0.29	-0.85
O=S(=O)(Cc1ccc(Cl)cc1)C1CCCCC1O (stereo not drawn)	0.69	-0.55
CN(Cc1nc(-c2ccccc2)no1)C(=O)NC1CCCCC1	-0.3	0.45
CCCN1CC2=C(NC(=S)NC2c2ccc(N(C)C)cc2)/C(=C/c2ccc(N(C)C)cc2)C1 (stereo not drawn)	11	0
CCOC(=O)Cc1nnc(SCc2cc(=O)n3c4c(sc3n2)CCCC4)n1Cc1ccco1	·	0.2
CCCCCn1c(SCc2cc(F)ccc2F)nc2cc(C(=O)N3CCC(C(N)=O)CC3)ccc2c1=O	-0.04	·
COc1ccc(NC(=O)C(CC(C)C)N2Cc3ccccc3C2=O)cc1 (stereo not drawn)	-0.35	·
Cc1ccc(C(CC(=O)c2ccco2)SCc2ccco2)cc1 (stereo not drawn)	-1.1	-0.95
O=C(c1cccc(C(F)(F)F)c1)N1CCc2c([nH]c3ccccc23)C1C(F)(F)F (stereo not drawn)	-0.57	-0.9
CCOC(=O)c1cnc2c(OC)cccc2c1N1CCC2(CC1)OCCO2	0.27	2.2
CCC(O)C12CC3CC(CC(C3)C1)C2 (stereo not drawn)	-0.16	-0.85
O=C(N=Nc1c(O)[nH]c2ccccc12)C(O)c1ccccc1 (stereo not drawn)	-2.2	0.1
Cc1ccc(-c2ccc(=O)[nH]n2)cc1	1.4	0.25
O=C(CSc1nc(-c2ccccc2)cc(=O)[nH]1)Nc1ccccc1	0.28	0.05&0.45
CC1(C)CC(=O)C(C=NCC(N)=O)=C(O)C1	0.22	-0.4
COc1cccc(NC(=O)COC(=O)Cc2ccc(F)cc2)c1	-0.85	1.6
O=C(O)c1ccc2c(c1)N(Cc1ccc(Cl)cc1)CCS2	-1.4	-0.6
O=C(Nc1c(NC2CCCCC2)c2ccccc2oc1=O)c1ccco1	-0.32	1
CCC(=O)OCC(=O)C1(OC(=O)CC)C(C)CC2C3CCC4=CC(=O)C=CC4(C)C3(Cl)C(O)CC21C (stereo not drawn)	-0.1	0.6
CC(C)n1cc(C(=O)c2ccccc2O)cc1-c1nnc(-c2ccccc2)o1	·	0.25
O=C(CSc1nc2ccccc2c(=O)[nH]1)NC1CCCC1	·	0.05
NC(=O)CS(=O)(=O)c1nc2ccccc2n1Cc1ccccc1	0.03	0.3
COc1ccc(Cl)cc1C(=O)N/N=C/c1ccc(C(F)(F)F)cc1F	0.25	·
Cc1ccc(CNC(=O)CCn2c(=O)c3cccn3c3cccnc32)cc1	1.9	0.6
O=C(NN1CCCCC1)c1oc2ccccc2c1COc1ccccc1	·	-0.95
O=C(c1cccs1)C1C(=O)c2ccccc2C1=O	-0.81	1.6
COc1cc(OC)c(CN2CCN(S(=O)(=O)c3ccccc3Cl)CC2)c(OC)c1	-0.33	·
O=C(c1ccc(-c2ccccc2)cc1)N1CCOCC1	-0.11	-0.2
COc1ccc(N=C2NC(=O)C(CC(=O)Nc3ccc(OC)cc3)S2)cc1 (stereo not drawn)	10	0
Nc1c(S(=O)(=O)c2ccccc2)sc2nc(-c3cccs3)cc(C(F)(F)F)c12	0.47	-0.15
Cc1ccccc1CN1C(=O)/C(=C\c2ccc(C(=O)NCc3ccco3)cc2)Sc2ccccc21	9.6	0.5
O=C1NC(c2ccccc2Cl)Nc2sc3c(c21)CCCC3 (stereo not drawn)	-0.01	-1.2
O=C1c2ccccc2-c2onc3c(Cl)ccc1c23	0.36	1.8

(more compounds)
SMILES	CapD inh	AID504770
CCOC(=O)c1oc2nc(C)c3c(c2c1N)CC(C)(C)OC3	67	·
Cc1cc(C(=O)O)c(C)n1Cc1ccc(S(N)(=O)=O)cc1	·	0.45
CN(C)C(=O)C(CCN1CCC(O)(c2ccc(Cl)cc2)CC1)(c1ccccc1)c1ccccc1	-0.45&-0.02	0.1
CCOC(=O)c1ccc(CNC(=O)CSc2nnnn2-c2ccc(Cl)cc2)o1	-0.23	2.1
O=C(Nc1ccc2c(c1)OCO2)c1cccs1	-2.7	1.1
Cc1ccc(SC(C)C(=O)N2CCC(C(N)=O)CC2)cc1 (stereo not drawn)	0.085	-0.95
COc1ccc(C(=O)N/N=C/c2cccc(OC(C)=O)c2)cc1OC	-2.1	·
O=C1c2ccccc2NC(c2cccc(F)c2)N1Cc1ccccc1 (stereo not drawn)	0.73	0.35
COc1ccc(CNC(=O)/C=C/C(=O)O)cc1	0.04	-0.85
Cc1ccnc(NC(=O)Cn2ncc3c2-c2cc(C)ccc2OC3)c1	0.65	2.4
O=C(OCC1COc2ccccc2O1)c1cc(F)c(F)c(F)c1F (stereo not drawn)	0.22	-0.35
CCN1C(=O)/C(=N\N=C2\C(=O)N(CC)c3ccccc32)c2ccccc21	·	-0.55

Random excerpt: two entries already listed
SMILES	CapD inh	AID504770
CCOc1ccc(S(=O)(=O)/N=C(\N)c2ccccc2)cc1	23	0.3
Cc1cc(C(=O)N2CCCC2)c2c(C)nn(-c3ccccc3)c2n1	1.7	0.35

More structures:
SMILES	CapD inh	AID504770
COc1ccc(C(=O)Nc2cccnc2Sc2ccc(Cl)cc2)cc1	-0.41	0.15
CCCc1ccc(S(=O)(=O)NC(CC(C)C)C(=O)NNC(=O)OCc2ccccc2)cc1 (stereo not drawn)	0.12	·
CC(=O)N(c1ccccc1)C1SC(=O)N(c2ccc(C)cc2)C1=O (stereo not drawn)	0.28	-0.3
O=C(OCC(=O)N1CCOCC1)c1ccc(S(=O)(=O)NCc2ccco2)cc1	·	1.4
O=c1/c(=C/c2cn(-c3ccccc3)nc2-c2ccc(Cl)cc2)sc2nc3ccccc3n12	0.28	·
O=C1/C(=C\c2ccccc2O)SC(=Nc2ccccc2)N1Cc1ccccc1	-1.2	1.6
N#Cc1c(-c2ccc(Cl)cc2)[nH]c(SCc2ccccc2)nc1=S	-0.92	-0.6
O=C(NCCO)c1cc2c(s1)CCC2	0.79	-0.25
CCOC(=O)c1c(CSc2nc(C)ccc2C#N)n(C)c2cc(Br)c(OC(C)=O)cc12	-0.22	·
CC(C)(C)OC(=O)NCc1ccc(C(=O)O)cc1	·	-0.1
Cc1cc2nc(CSc3ccccc3NC(=O)c3ccc4c(c3)OCO4)cc(=O)n2o1	-1.2	0.45
CC(C)Cc1c(O)nc(SCC(=O)NC(C)(C)C)[nH]c1=O	1.6	0.05
O=C(c1cccs1)n1cc(C(F)(F)F)ccc1=O	·	-1.3
Cc1ccc(S(=O)(=O)N2CCC(CNC(=O)c3cccs3)CC2)cc1	·	-0.7
O=C(CSc1ncnc2sc(-c3ccccc3)cc12)NC1CCS(=O)(=O)C1 (stereo not drawn)	·	-0.95
O=C(Nc1c2c(nn1-c1ccc(Cl)cc1)CS(=O)(=O)C2)c1ccc(C(=O)c2ccccc2)cc1	-0.56	·
COc1ccc(C2CC(=O)C3=C(C2)Nc2ccccc2NC3c2cc(Br)c(O)c(OC)c2)cc1 (stereo not drawn)	-0.94	·
O=C(O)c1ccc(N=NSCCO)cc1	·	-0.55
CC(C)c1ccc(-c2c(C#N)c(N)nc3sc(C(=O)Nc4nccs4)c(N)c23)cc1	-0.29	·
Cc1c(C)c(C)c2c(c1C)NC(c1cc(Cl)cc(Cl)c1O)N2	0.11	·
OC1CCCN(Cc2ccc(Br)cc2)C1 (stereo not drawn)	0.01	1.6
Cc1cc(C)c2c(-n3cccc3)c(C(=O)NCCCN3CCN(c4ccc(F)cc4)CC3)sc2n1	0.015	1.5
CCCC(=O)Nc1cc(C(=O)NC2CC2)ccc1S(=O)(=O)c1ccc(C)cc1	0.42	-0.45
O=C(NC1CCS(=O)(=O)C1)c1cc(-c2ccc(Cl)cc2)oc1C(F)(F)F (stereo not drawn)	-0.11	4.3
O=[N+]([O-])c1cccc(-c2nc(-c3ccc(Br)cc3)c(-c3ccc(Br)cc3)[nH]2)c1	-0.46	·
C=CCOc1cccc(C2C(C(=O)c3cccs3)=C(O)C(=O)N2CCN(C)C)c1 (stereo not drawn)	-0.19	0.9
CC1CCCCC1NC(=O)CN(C)S(=O)(=O)c1ccc(Cl)cc1 (stereo not drawn)	·	0.3
COc1ccc(CC(=O)N/N=C/c2csc([N+](=O)[O-])c2)cc1OC	-0.75	·
O=C(NC1CCCc2ccccc21)c1cnn(-c2ccccc2)c1-n1cccc1 (stereo not drawn)	0.46	-1
O=C(O)c1cccc(CN2C(=O)c3ccccc3C2=O)c1	·	2.9
Cc1ccc(S(=O)(=O)N2CCCCC2)cc1C(=O)Oc1cccc2cccnc12	1.1	-2.7
CCCCCCc1cc2c(=O)c(-c3csc(C)n3)coc2cc1OCC(=O)OCC	-0.085	·
N#Cc1c(-c2ccco2)cc(-c2cccs2)nc1N	3	2.4
CCOC(=O)/C=C1\SC(C)C(=O)N1CC(=O)N(CCC#N)c1ccccc1 (stereo not drawn)	·	-0.35
COC(=O)c1ccccc1S(=O)(=O)/C(C#N)=C/Nc1nc(SC)nc(C2CC2)n1	0.055	0.85
CC(Oc1ccccc1)c1nc2ccccc2n1C (stereo not drawn)	-0.95	2.6
COc1ccc(NC(=O)C(C)Oc2ccc3c(-c4ccccc4)cc(=O)oc3c2)cc1 (stereo not drawn)	0.64	1.4
CCOC(=O)C(C)Oc1cc2oc(=O)c3c(c2cc1Cl)CCC3 (stereo not drawn)	2.2	-0.7
O=C(CN1C(=O)c2ccccc2C1=O)NCc1ccccc1	·	-1.9
CCn1c(SCC(=O)NC(C)c2ccccc2)nnc1-c1ccccc1OC (stereo not drawn)	·	0.55

In the list so far, these have fluorine:
SMILES	CapD inh	AID504770
FC(F)(F)C1CCCN(c2nsc3ccccc23)C1 (stereo not drawn)	·	-1.9
COc1cc(C(F)(F)F)nc2c(I)c(C(C)(C)C)nn12	2.7	-0.4
COc1cccc(C(=O)N2c3ccccc3C(N(C(=O)C(F)(F)F)c3ccccc3)CC2C)c1 (stereo not drawn)	0.28	·
CN(c1ccc(OCC(=O)NCC(F)(F)F)cc1)S(=O)(=O)c1ccccc1	·	1.9
CCCCCn1c(SCc2cc(F)ccc2F)nc2cc(C(=O)N3CCC(C(N)=O)CC3)ccc2c1=O	-0.04	·
O=C(c1cccc(C(F)(F)F)c1)N1CCc2c([nH]c3ccccc23)C1C(F)(F)F (stereo not drawn)	-0.57	-0.9
COc1cccc(NC(=O)COC(=O)Cc2ccc(F)cc2)c1	-0.85	1.6
COc1ccc(Cl)cc1C(=O)N/N=C/c1ccc(C(F)(F)F)cc1F	0.25	·
Nc1c(S(=O)(=O)c2ccccc2)sc2nc(-c3cccs3)cc(C(F)(F)F)c12	0.47	-0.15
O=C1c2ccccc2NC(c2cccc(F)c2)N1Cc1ccccc1 (stereo not drawn)	0.73	0.35
O=C(OCC1COc2ccccc2O1)c1cc(F)c(F)c(F)c1F (stereo not drawn)	0.22	-0.35
O=C(c1cccs1)n1cc(C(F)(F)F)ccc1=O	·	-1.3
Cc1cc(C)c2c(-n3cccc3)c(C(=O)NCCCN3CCN(c4ccc(F)cc4)CC3)sc2n1	0.015	1.5
O=C(NC1CCS(=O)(=O)C1)c1cc(-c2ccc(Cl)cc2)oc1C(F)(F)F (stereo not drawn)	-0.11	4.3
